Screening data: PubChem, ICCB-Longwood Screening Facility, Harvard Medical School
VACV E9 pol inh = inhibitors of vaccinia virus processive DNA synthesis (E9 polymerase); AID 493162; normalized absorbance, % (no concentration beside the values); in vitro processive DNA synthesis, absorbance read-out; active compounds read low; some inactives read as strong as hits; 46,000 compounds, 0.94% hits;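 active = replicate mean up to 90% and picked by the depositor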;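 note: 100% = median of the test wells of a plate; 100 nL library stock went into each well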
An asterisk follows results filed as active. These rows are one share of the data, so the mix of outcomes need not match the whole.

SMILES	VACV E9 pol inh
CCOC(=O)C1C(=O)CC(=O)C(C(=O)OCC)C1c1ccc(OC)cc1 (centres undefined)	101
CCOc1ccc(-c2nc(=S)[nH][nH]2)cc1	101
C=CCc1ccc(OCC(O)CN2CCN(c3ccccc3)CC2)c(OC)c1 (centres undefined)	99
COc1ccc(S(=O)(=O)CC(C)(O)CS(=O)(=O)c2ccc(OC)cc2)cc1	99
c1ccc(Nc2ncnc3cc(-c4ccccc4)sc23)cc1	82
CCCCN(C)C(=O)Cn1cc2c(n1)CCCCC2	99
CN(C)c1ccc(-c2nc(-c3cccc(I)c3)cc(=O)o2)cc1	100
CC(C)c1ccc(OCCCN2CCCC2)cc1	101
COc1cccc(N=Cc2ccc(O)cc2)c1	100
CCC(CO)NC(=O)c1ccc(N)cc1 (centres undefined)	86
Clc1nc2sccn2c1C=Nc1ccccc1	98
S=C1SCN(Cc2ccccc2)CN1Cc1ccccc1	99
Cc1ccc(C(O)C(=O)c2ccccc2)o1 (centres undefined)	95
N#Cc1cnn(-c2ccccc2)c1C(F)(F)F	88
Cc1nc(-c2ccc(NS(C)(=O)=O)cc2)cs1	98
CC(=O)Nc1sc(Cc2ccc3c(c2)OCO3)c(C)c1C(N)=O	101
Cc1nn(C(=O)c2ccccc2)cc1-c1nsc(Nc2ccccc2)n1	102
COc1ccc(-n2nc3c(c2NC(=O)c2ccco2)CSC3)cc1	99
Cc1ccc(-n2c(SCc3cccc(C(F)(F)F)c3)nnc2-c2ccncc2)cc1	100
CC(=O)N1CCc2c(sc(NC(=O)/C=C/c3ccccc3)c2C(N)=O)C1	103

Overlap with the part before: three compounds, followed by the next part.
SMILES	VACV E9 pol inh
COc1ccc(-n2nc3c(c2NC(=O)c2ccco2)CSC3)cc1	99
Cc1ccc(-n2c(SCc3cccc(C(F)(F)F)c3)nnc2-c2ccncc2)cc1	100
CC(=O)N1CCc2c(sc(NC(=O)/C=C/c3ccccc3)c2C(N)=O)C1	103
Cc1ccc(-c2nc(C#N)c(NC3CC3)o2)cc1	104
Cc1ccc(NC(=O)COC(=O)c2cncc(Br)c2)c(C)c1	104
CCCC1=C(C(=O)OCC)C(c2ccccc2Cl)C(C#N)=C(SC)N1 (centres undefined)	100
N#CC1(NCCc2ccccc2)CCCCC1	100
CN(C)/C=C(\C#N)c1nnc(-c2ccccn2)n1C	98
O=C(CSc1nn(-c2ccccc2)c(=S)s1)N1N=CCC1c1ccccc1 (centres undefined)	103
Cc1cc(=O)[nH]c(SCC(N)=O)n1	100
Cc1[nH]c(-c2ccc(F)cc2)cc1C(=O)NCCCN1CCN(C2CCCCC2)CC1	109
N#CC1=C(N)SC(N)=C(C#N)C1c1ccccc1F	91
CC(=O)N1CCc2cc(N=Cc3ccc(O)cc3)ccc21	101
O=C(COc1ccccc1F)NC(=Nc1ccccc1)c1ccccc1	95
NC(=O)c1cccc(S(=O)(=O)N2CC(c3ccccc3)CC2=O)c1 (centres undefined)	104
c1ccc(Oc2nnc(-c3ccccc3)c3ccccc23)cc1	104
c1ccc(CN2C3=NCCCN3c3ccccc32)cc1	100
Cc1c(C(=O)NCCC(C)C)sc2ncnc(N3CCOCC3)c12	103
OC(CN1CCNCC1)Cn1c2ccccc2c2cc(Br)ccc21 (centres undefined)	56*
CCN(C(=O)CSc1ccc(Cl)cc1)C1CCCCC1	106
O=C(O)c1[nH]c2ccccc2c1CNCc1ccccc1	102
O=C(O)CSc1ccccc1	100
O=C(CCS(=O)(=O)c1ccc(Br)s1)Nc1cccc(C(F)(F)F)c1	98
O=S(=O)(c1ccc(Cl)cc1)n1ccc(C(F)(F)F)n1	99
O=S(=O)(c1ccc(Br)cc1)N1CCCc2ccccc21	100
Cc1ccc2c(CC(=O)O)cc(=O)oc2c1	100
c1ccc2sc3c(-c4ccncc4)sc4ccccc4[nH]c-3nc2c1	88
COc1ccc(S(=O)(=O)NCCc2cc3ccc(OC)cc3[nH]c2=O)cc1	95
COC(=O)c1ccc(C(=O)OC)c(NC(=S)N2CCCC2)c1	102
COC(=O)/C=C/CSc1nnc(-c2ccc(Cl)cc2Cl)o1	100
CCCOc1ccc(C(=O)NCC2COc3ccccc3O2)cc1OC (centres undefined)	88
NC(=O)CSc1nc2c(c(=O)n1-c1ccccc1)SCC2	100
CCNc1c(NC(=O)CC23CC4CC(CC(C4)C2)C3)c(=O)oc2ccccc12	106
Cc1nc(C(F)(F)F)ccc1C(=O)Sc1nnc(-c2ccc(C(F)(F)F)nc2C)o1	81
CC(NC(=O)c1cccs1)C1CC2CCC1C2 (centres undefined)	100
O=C(Nc1ccccc1-c1nc2ccccc2[nH]1)C1CC1	84
CCCCC(C)(O)C/C=C/[C@H]1[C@H](O)CC(=O)[C@@H]1CCCCCCC(=O)O (some centres undefined)	99
CN(C)c1ccc2c3c(ccc(N(C)C)c13)[C@](O)(C(F)(F)F)O[C@]2(O)C(F)(F)F	100
COc1ccccc1NC(=O)COC(=O)C1CC1	89
Cc1ccc(-c2csc(Nc3ccccn3)n2)cc1	104
CC(C)Cc1ccc(S(=O)(=O)N2c3ccccc3CC2C)cc1 (centres undefined)	101
CC1CC(C)CN(S(=O)(=O)Cc2ccccc2)C1 (centres undefined)	100
O=c1[nH]nc(SCCS(=O)(=O)c2ccc(F)cc2)n1Cc1ccco1	88

18 compounds already listed, sorted by length of the SMILES, falling.
SMILES	VACV E9 pol inh
CN(C)c1ccc2c3c(ccc(N(C)C)c13)[C@](O)(C(F)(F)F)O[C@]2(O)C(F)(F)F	100
CCCCC(C)(O)C/C=C/[C@H]1[C@H](O)CC(=O)[C@@H]1CCCCCCC(=O)O (some centres undefined)	99
Cc1nc(C(F)(F)F)ccc1C(=O)Sc1nnc(-c2ccc(C(F)(F)F)nc2C)o1	81
CCNc1c(NC(=O)CC23CC4CC(CC(C4)C2)C3)c(=O)oc2ccccc12	106
COc1ccc(S(=O)(=O)NCCc2cc3ccc(OC)cc3[nH]c2=O)cc1	95
O=C(CCS(=O)(=O)c1ccc(Br)s1)Nc1cccc(C(F)(F)F)c1	98
O=c1[nH]nc(SCCS(=O)(=O)c2ccc(F)cc2)n1Cc1ccco1	88
c1ccc2sc3c(-c4ccncc4)sc4ccccc4[nH]c-3nc2c1	88
COC(=O)c1ccc(C(=O)OC)c(NC(=S)N2CCCC2)c1	102
COC(=O)/C=C/CSc1nnc(-c2ccc(Cl)cc2Cl)o1	100
OC(CN1CCNCC1)Cn1c2ccccc2c2cc(Br)ccc21 (centres undefined)	56*
NC(=O)CSc1nc2c(c(=O)n1-c1ccccc1)SCC2	100
O=S(=O)(c1ccc(Br)cc1)N1CCCc2ccccc21	100
O=C(O)c1[nH]c2ccccc2c1CNCc1ccccc1	102
CC1CC(C)CN(S(=O)(=O)Cc2ccccc2)C1 (centres undefined)	100
Cc1ccc(-c2csc(Nc3ccccn3)n2)cc1	104
Cc1ccc2c(CC(=O)O)cc(=O)oc2c1	100
O=C(O)CSc1ccccc1	100

More compounds:
SMILES	VACV E9 pol inh
O=S(=O)(c1ccc2ccccc2c1)N1CCCCC1	100
CCN(CC)C(=O)C1Sc2nnc(-c3ccccc3)n2NC1c1ccc(C)cc1 (centres undefined)	104
CC(O)c1ccc(OCc2c(F)cccc2Cl)cc1 (centres undefined)	81
COc1ccc(CN=C(Nc2ccccc2)SC2CC(=O)NC2=O)cc1 (centres undefined)	91
CN1CCCN(C(=O)c2ccc(Oc3ccccc3)cc2)CC1	104
CC1(C)CC2CC(C)(CN2C(=O)CSCC(=O)O)C1 (centres undefined)	94
O=C(COc1ccc2c3c(c(=O)oc2c1)CCC3)OCc1ccccc1	100
CC(C)c1ccc(OCc2ccc(C(=O)N(C)C)o2)cc1	100
CC(=O)NCCc1csc(-c2ccccc2)n1	98
O=C(/C=C/c1ccccc1)OCC1CCCN2CCCCC12 (centres undefined)	94
O=C(O)CSc1n[nH]c(-c2cccs2)n1	92
CCN(CC)c1ccc(Nc2nc(-c3cccs3)cs2)cc1	96
NC(=O)COC(=O)Cc1c(Cl)cccc1Cl	78
Cc1nc2ccc(N=Cc3ccc(Br)cc3)cc2s1	100
CC(C)CCNc1nnnc2c1sc1nc(N3CCOCC3)c3c(c12)CCCC3	100
Cn1c(=NC(=O)c2nc3ccccc3s2)sc2cc(Cl)ccc21	100
CC1=CC(C)(C)N(C(=O)CN2C(=O)c3ccccc3C2=O)c2ccccc21	100
CCOC(=O)Cc1c(C)[nH]c(C(=O)OCC)c1CC(=O)OCC	90
CC1CCCC(C)N1C(=O)CCC(=O)O (centres undefined)	100
CC(CCc1ccccc1)NCc1ccco1 (centres undefined)	102
Cc1onc(-c2ccccc2Cl)c1C(=O)Nc1ccccc1CC1c2ccccc2CCN1C (centres undefined)	93
O=C(CN1C(=O)CC(c2ccccc2)Sc2ccccc21)NCc1ccccc1 (centres undefined)	97
CC1(C)c2ccccc2N2CC(=O)NC21/C=C/c1ccc(N2CCOCC2)cc1 (centres undefined)	98
CC1(C)ONC(=O)N(c2ccccc2)C1=O	91
Cc1nnc(Sc2cc(C(=O)NCCCN3CC(C)CC(C)C3)c3ccccc3n2)s1 (centres undefined)	69*
O=C(NCCc1c[nH]c2ccccc12)c1ccc(Cl)c(S(=O)(=O)N2CCCC2)c1	95
COc1ccc(-n2ccnc2SCC(=O)Nc2ccccc2)cc1	101
O=C(OCC(=O)N1c2ccccc2Sc2ccccc21)c1ccco1	100
O=C(NC1CS(=O)(=O)CC1NCc1ccco1)c1ccccc1 (centres undefined)	102
CC(C)Cc1ccc(/C=C/C(=O)N2CCN(C/C=C/c3ccccc3)CC2)cc1	98
CN(C)c1ccc(-n2c(=O)c3cc4c(=O)n(-c5ccc(N(C)C)cc5)c(=O)c4cc3c2=O)cc1	99
O=C1c2ccccc2C(=O)C1(Cc1ccc(Cl)cc1)c1ccc(Cl)cc1	93
O=C1Nc2ccccc2OC1CC(=O)N1CCN(c2ccccc2)CC1 (centres undefined)	108
CC(C)c1cc(C(=O)Nc2cccnc2)no1	101
Cc1ccc(NC(=S)N(CCC#N)C2CCCCC2)cc1	107
O=C1c2ccccc2C(=O)C1C1c2ccccc2Oc2ccccc21	90
O=C1CN(C(=O)c2ccccc2C(=O)O)c2ccccc2N1	106
CN(C)C(CNC(=S)Nc1ccccc1)c1cccnc1 (centres undefined)	90
COc1ccccc1/C(O)=C/c1nc2cc3c(cc2[nH]c1=O)n(C)c(=O)n3C	100
O=C1CC(c2ccccc2Cl)Cc2c1cnn2-c1nc2ccccc2s1 (centres undefined)	100
CCOC(=O)C1CCCN(C(=O)CSc2ccccc2Cl)C1 (centres undefined)	96
CC1CCCN(C(=O)c2ccc(Cl)c(S(=O)(=O)N3CCCCCC3)c2)C1 (centres undefined)	91
O=C(O)CCCSc1ccccc1	101
CCOC(=O)c1c(-c2ccccc2)cn2ccccc12	93
O=c1oc2ccccc2cc1C1=NC(=S)NC(c2ccc3c(c2)OCO3)C1 (centres undefined)	100
Cn1c(=S)[nH]c2sc3c(c2c1=O)CCC(C(C)(C)C)C3 (centres undefined)	98
O=c1oc2ccccc2c(Nc2ccccc2)c1CN1CCCCC1	101
O=c1ccn(C2OC(CO)C(O)C2O)c(=S)[nH]1 (centres undefined)	100
CC1(C)CC2(C)OC(=O)C(c3ccccc3)N2C(=S)N1 (centres undefined)	100
Cc1ccc(-c2nc(S(=O)(=O)c3ccc(C)cc3)c(N(C)C)o2)cc1	96
COc1ccc(CC(=O)N(C)C)cc1	99
CCN(CCC#N)C(=S)Nc1cc(C(F)(F)F)cc(C(F)(F)F)c1	115
COC(=O)C1=C(NC(=O)/C=C/c2ccccc2)CCS1	99
Cc1cc(C)n2c(NC(C)C)c(-c3ccc(C)o3)nc2n1	96
COc1ccc2c(c1)c(CC(=O)OCC(=O)O)c(C)n2C(=O)c1ccc(Cl)cc1	99
COc1ccc(NC(=O)c2cncc(NS(=O)(=O)c3ccc(C)cc3)c2)cc1OC	102
CCc1cccc(C(C)C)c1NC(=O)Nc1ccccc1	107
CCOC(=O)Cc1c(O)c2ccccc2[nH]c1=O	97
COC(=O)C1=C(C)NC(=O)/C1=C\c1cccc2ccccc12	99
O=C(CN1C2=NCCCN2c2ccccc21)c1ccco1	100
Later entries:
SMILES	VACV E9 pol inh
CCC(C)NC(=O)CSc1nc2ccsc2c(=O)n1NC(=O)c1ccccc1 (centres undefined)	100
CC(=O)n1c2ccccc2c2ccccc21	67*
CCSc1nnc(NC(=O)C(C)C)s1	100
CC(C)(C)C1=CC(C(C#N)C#N)c2ccccc2O1 (centres undefined)	98
COC(=O)C1=C(N)OC2=C(C(=O)CCC2)C1c1ccc(OCc2ccccc2F)cc1 (centres undefined)	100
Cn1c(=O)oc2cc(S(=O)(=O)N3CCc4ccccc43)ccc21	105
CC1(C)Cc2c(cnn2-c2ccc(F)cc2)-c2nc3ccccc3nc21	97
CCN(CC)C(=O)c1ccc(CS(=O)(=O)c2ccccc2C)o1	100
CN(C)NC(=S)NCc1ccc(F)cc1	97
CN(c1ccccc1C(=O)O)S(=O)(=O)c1ccc2[nH]c(=O)[nH]c2c1	97
COc1ccc(S(=O)(=O)N2CCN(C/C=C/c3ccccc3)CC2)cc1C	100
O=C(Nc1ccccc1)N(Cc1ccccc1)c1cccc2ccccc12	104
CCn1cc(CCC(=O)NC(C)c2ccccc2)c2ccccc21 (centres undefined)	99
CCOC(=O)C1(C#N)C(C#N)(C(=O)OCC)C1(C#N)C(=O)OCC (centres undefined)	101
O=C(NC(Oc1ccccc1)(C(F)(F)F)C(F)(F)F)Oc1ccccc1	108
CSC1=NCCN1S(=O)(=O)c1ccc(NC(C)=O)cc1	100
CCCCN1C(=O)/C(=C/N(C(C)=O)c2ccccc2)SC1=S	100
CCC(C)NC(=O)C1CCCN(c2nc(-c3ccc(OC)cc3)no2)C1 (centres undefined)	105
CC(C)Nc1nc(-c2ccccc2)nc(-n2ccnc2)n1	100
